# Env fusion inh: HIV envelope-mediated fusion inhibition; HeLa-JRFL Env/CEM21 cell fusion, luciferase; 1.1% of 360,000 active; inhibition, % at 12.3 µM;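 active means mean replicate inhibition score of at least 50 and every replicate individually at or above 50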;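 further: 0% = plate neutral controls and 100% = maraviroc near 300 nM; one replicate is shown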
# UUG fidelity: alters start codon recognition fidelity in yeast | S. cerevisiae UUG-firefly luciferase reporter, luminescence/redox ratio | 0.13% of 350,000 active | AID 602363 | activity score, % at 18.7 µM;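 active means replicate mean at a twofold rise or more, about +100% in these data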;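 further: firefly luciferase made from a UUG start codon reports start codon fidelity; reporter light over untreated wells divided by growth signal over untreated wells; some hits fall short of that in this replicate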
# An asterisk follows results filed as active; [ ] = another dose, or the depositor's remark.
Env fusion inh,UUG fidelity,canonical_smiles
-30[16.7 µM],-11,CC(C)NC(=O)Nc1cccc2c1O[C@@H](CN(C)S(=O)(=O)c1cn(C)cn1)[C@H](C)CN([C@H](C)CO)C2=O
5[16.7 µM],-3,Cc1noc(C)c1NC(=O)N[C@H]1CC[C@@H](CCNC(=O)C2CC2)O[C@H]1CO
5[16.7 µM],-5,C[C@@H]1CN([C@H](C)CO)C(=O)c2cccc(NC(=O)c3nc4ccccc4s3)c2O[C@@H]1CN(C)S(C)(=O)=O
15[16.7 µM],-10,COc1ccccc1S(=O)(=O)N(C)C[C@@H]1Oc2cc(C#CCC3CCCC3)ccc2S(=O)(=O)N([C@@H](C)CO)C[C@H]1C
12[16.7 µM],-7,O=C(C[C@H]1CC[C@@H]2[C@H](COC[C@@H](O)CN2C(=O)c2ccncc2)O1)NCc1cccc(F)c1
30[16.7 µM],5,COc1cccc(S(=O)(=O)N[C@H]2C=C[C@H](CC(=O)NC3Cc4ccccc4C3)O[C@H]2CO)c1
-14[16.7 µM],-3,C[C@@H](NC(=O)C[C@H]1C=C[C@H](NC(=O)C2CC2)[C@H](CO)O1)c1ccccc1
-18[16.7 µM],4,C[C@H](CO)N1C[C@H](C)[C@@H](CN(C)C(=O)CN(C)C)Oc2ncc(-c3ccc(C(=O)N(C)C)cc3)cc2C1=O
-9[16.7 µM],-3,C[C@@H]1CN([C@@H](C)CO)C(=O)c2cc(NC(=O)CCC(F)(F)F)ccc2O[C@@H](C)CCCCO[C@@H]1CN(C)C(=O)c1ccncc1
-3[16.7 µM],7,C[C@@H]1CN([C@H](C)CO)C(=O)c2cc(-c3cccnc3)cnc2O[C@@H]1CN(C)Cc1ccc(-c2ccccc2)cc1
-227[16.7 µM],8,Cc1ccc(S(=O)(=O)N(C)C[C@H]2OCCCC[C@H](C)Oc3ccc(NC(=O)c4ccncc4)cc3C(=O)N([C@@H](C)CO)C[C@@H]2C)cc1
-8[16.7 µM],13,C[C@H]1CCCCO[C@@H](CN(C)C(=O)Cc2ccccc2)[C@@H](C)CN([C@@H](C)CO)C(=O)c2cc(NC(=O)Cc3ccccc3)ccc2O1
-43[16.7 µM],-2,C[C@@H]1CN([C@H](C)CO)C(=O)c2cc(C#CCN(C)C)cnc2O[C@@H]1CN(C)C(=O)c1ccc(F)cc1
-14[16.7 µM],6,C[C@H]1CN([C@@H](C)CO)C(=O)c2cc(C#CC3(O)CCCC3)cnc2O[C@H]1CN(C)S(=O)(=O)c1cccc(F)c1
11[16.7 µM],-13,C[C@H](CO)N1C[C@H](C)[C@@H](CN(C)S(=O)(=O)c2ccc(F)cc2)Oc2ncc(C#CC3CCCCC3)cc2C1=O
23[16.7 µM],18,COc1ccc(NC(=O)N[C@@H]2CC[C@H](CC(=O)NC3CCCCC3)O[C@@H]2CO)cc1
-1[16.7 µM],-2,CNC[C@H]1Oc2ccc(NC(=O)Nc3ccc(OC)cc3)cc2C(=O)N([C@@H](C)CO)C[C@@H]1C
-2[16.7 µM],-17,C[C@H]1CN([C@@H](C)CO)C(=O)Cc2cc(N(C)C)ccc2O[C@@H]1CN(C)S(=O)(=O)c1cn(C)cn1
9[16.7 µM],0,O=C(C[C@@H]1CC[C@@H](NS(=O)(=O)c2ccccc2)[C@@H](CO)O1)N1CCc2ccccc2C1
-13[16.7 µM],5,COCC#Cc1ccc2c(c1)O[C@H](CN(C)C(=O)CN(C)C)[C@@H](C)CN([C@H](C)CO)S2(=O)=O
-16[16.7 µM],9,C[C@@H]1CN([C@@H](C)CO)C(=O)c2cc(C3=CCCC3)cnc2O[C@H]1CN(C)C(=O)NC1CCCC1
-11[16.7 µM],-7,N#C[C@@H]1[C@@H](c2ccc(-c3cncnc3)cc2)[C@H](CO)N1C(=O)CN1CCOCC1
6[16.7 µM],2,C[C@H](CO)N1C[C@H](C)[C@@H](CN(C)Cc2ccccc2)Oc2ccc(NS(=O)(=O)c3ccc(Cl)cc3)cc2CC1=O
19[16.7 µM],0,O=C(NCC[C@@H]1CC[C@@H](NC(=O)c2ccc3c(c2)OCO3)[C@H](CO)O1)Nc1cc(F)ccc1F
-12[16.7 µM],3,Cc1cc(C(=O)Nc2cccc3c2O[C@@H](CN(C)CC2CCCCC2)[C@@H](C)CN([C@@H](C)CO)C3=O)n(C)n1
-14[16.7 µM],-1,O=C(N[C@@H]1CC[C@H](CCNS(=O)(=O)c2ccccc2Cl)O[C@H]1CO)c1ccc(F)cc1
11[16.7 µM],-6,CCCN(C)C[C@H]1Oc2ncc(C#Cc3ccc(F)cc3)cc2C(=O)N([C@@H](C)CO)C[C@H]1C
9[16.7 µM],22,CC(C)NC(=O)Nc1ccc2c(c1)C(=O)N([C@@H](C)CO)C[C@@H](C)[C@H](CN(C)C(=O)Nc1ccccc1)O2
-6[16.7 µM],-20,Cc1noc(C)c1NC(=O)Nc1ccc2c(c1)C(=O)N([C@@H](C)CO)C[C@H](C)[C@H](CN(C)C(=O)Nc1ccc3c(c1)OCO3)O2
2[16.7 µM],10,Cc1noc(C)c1NC(=O)Nc1ccc2c(c1)CC(=O)N([C@@H](C)CO)C[C@H](C)[C@@H](CN(C)S(=O)(=O)c1ccc(Cl)cc1)O2
-1[16.7 µM],1,COCC(=O)N1C[C@@H](C)[C@H](OC)CN(C)C(=O)c2cc(NC(=O)NC(C)C)ccc2OC[C@@H]1C
14[16.7 µM],5,N#C[C@H]1[C@H](c2ccc(-c3cncnc3)cc2)[C@@H](CO)N1C(=O)C1CCOCC1
-10[16.7 µM],1,C[C@H](CO)N1C[C@H](C)[C@@H](CN(C)S(=O)(=O)c2ccc(Cl)cc2)Oc2c(NC(=O)C3CCCCC3)cccc2C1=O
-27[16.7 µM],-5,C[C@H](CO)N1C[C@H](C)[C@H](CN(C)Cc2ccccc2)Oc2ccc(NS(C)(=O)=O)cc2CC1=O
7[16.7 µM],-18,CN1CCN(C(=O)C[C@@H]2C[C@@H]3c4cc(NC(=O)NC5CCCC5)ccc4O[C@@H]3[C@H](CO)O2)CC1
2[16.7 µM],4,Cc1noc(C)c1NC(=O)Nc1ccc2c(c1)C(=O)N([C@H](C)CO)C[C@H](C)[C@H](CN(C)C)OCCCC[C@H](C)O2
0[16.7 µM],-12,N#C[C@@H]1[C@@H](c2ccc(C#CC3CCCCC3)cc2)[C@H](CO)N1C(=O)Cc1ccccn1
-13[16.7 µM],6,C[C@H]1CN([C@@H](C)CO)C(=O)c2cc(NS(=O)(=O)c3ccc(F)cc3)ccc2O[C@@H]1CN(C)C(=O)NC1CCCCC1
14[16.7 µM],37,COc1ccc(CN(C)C[C@H]2OCCCC[C@@H](C)Oc3ccc(NS(=O)(=O)c4cccs4)cc3C(=O)N([C@H](C)CO)C[C@H]2C)cc1
9[16.7 µM],11,C[C@@H]1CCCCO[C@H](CN(C)Cc2ccc(C(F)(F)F)cc2)[C@H](C)CN([C@H](C)CO)C(=O)c2cc(NC(=O)Nc3ccc(F)cc3)ccc2O1

# 4 of the compounds above, field by field.
Cc1cc(C(=O)Nc2cccc3c2O[C@@H](CN(C)CC2CCCCC2)[C@@H](C)CN([C@@H](C)CO)C3=O)n(C)n1
  Env fusion inh: -12[16.7 µM]
  UUG fidelity: 3
O=C(N[C@@H]1CC[C@H](CCNS(=O)(=O)c2ccccc2Cl)O[C@H]1CO)c1ccc(F)cc1
  Env fusion inh: -14[16.7 µM]
  UUG fidelity: -1
CCCN(C)C[C@H]1Oc2ncc(C#Cc3ccc(F)cc3)cc2C(=O)N([C@@H](C)CO)C[C@H]1C
  Env fusion inh: 11[16.7 µM]
  UUG fidelity: -6
CC(C)NC(=O)Nc1ccc2c(c1)C(=O)N([C@@H](C)CO)C[C@@H](C)[C@H](CN(C)C(=O)Nc1ccccc1)O2
  Env fusion inh: 9[16.7 µM]
  UUG fidelity: 22

# Copied from the list:
# Result for C[C@@H]1CN([C@H](C)CO)C(=O)c2cccc(NC(=O)c3nc4ccccc4s3)c2O[C@@H]1CN(C)S(C)(=O)=O under UUG fidelity: -5
# Result for C[C@H](CO)N1C[C@H](C)[C@H](CN(C)Cc2ccccc2)Oc2ccc(NS(C)(=O)=O)cc2CC1=O under Env fusion inh: -27[16.7 µM]
# Result for C[C@H]1CCCCO[C@@H](CN(C)C(=O)Cc2ccccc2)[C@@H](C)CN([C@@H](C)CO)C(=O)c2cc(NC(=O)Cc3ccccc3)ccc2O1 under UUG fidelity: 13

# Following part:
Env fusion inh,UUG fidelity,canonical_smiles
-4[16.7 µM],8,C[C@H](CO)N1C[C@H](C)[C@@H](CN(C)C(=O)CN(C)C)Oc2ncc(C#CC3(O)CCCC3)cc2C1=O
-14[16.7 µM],-2,CCCN(C)C[C@H]1Oc2cc(C#Cc3ccccn3)ccc2S(=O)(=O)N([C@H](C)CO)C[C@H]1C
18[16.7 µM],2,C[C@H](CO)N1C[C@H](C)[C@H](CN(C)C(=O)c2ccccc2F)Oc2ncc(C#Cc3cccc(F)c3)cc2C1=O
-6[16.7 µM],0,C[C@@H]1CN([C@H](C)CO)C(=O)c2cc(NS(=O)(=O)c3cccs3)ccc2O[C@@H](C)CCCCO[C@@H]1CN(C)S(=O)(=O)c1cccs1
-15[16.7 µM],11,C[C@@H]1CCCCO[C@H](CN(C)Cc2ccc(C(=O)O)cc2)[C@H](C)CN([C@@H](C)CO)C(=O)c2cc(NS(=O)(=O)c3cccs3)ccc2O1
11[16.7 µM],8,Cc1noc(C)c1NC(=O)N(C)C[C@H]1OCCCC[C@@H](C)Oc2ccc(NS(=O)(=O)c3c(C)noc3C)cc2C(=O)N([C@H](C)CO)C[C@H]1C
-1[16.7 µM],-7,COCC(=O)Nc1ccc2c(c1)[C@H]1C[C@@H](CC(=O)NC3CCCC3)O[C@H](CO)[C@H]1O2
0[16.7 µM],4,COc1ccc(CN(C)C[C@H]2Oc3ccc(NC(=O)Nc4ccc(OC)cc4)cc3C(=O)N([C@H](C)CO)C[C@H]2C)cc1
17[16.7 µM],18,C[C@H]1CCCCO[C@H](CN(C)C(=O)CCC(F)(F)F)[C@@H](C)CN([C@@H](C)CO)C(=O)c2cc(NS(=O)(=O)c3cccs3)ccc2O1
-12[16.7 µM],3,COCC(=O)Nc1ccc2c(c1)[C@H]1C[C@H](CC(=O)NCc3cc(F)ccc3F)O[C@H](CO)[C@H]1O2
9[16.7 µM],-6,C[C@H](CO)N1C[C@H](C)[C@@H](CN(C)Cc2ccc(C(=O)Nc3ccccc3N)cc2)Oc2ccc(NC(=O)Nc3ccc(F)cc3)cc2C1=O
23[16.7 µM],-10,Cc1ccc(S(=O)(=O)N[C@H]2CC[C@H](CC(=O)NCc3ccncn3)O[C@H]2CO)cc1
-12[16.7 µM],-17,Cc1noc(C)c1NC(=O)N(C)C[C@@H]1Oc2ccc(NS(=O)(=O)c3ccccc3)cc2C(=O)N([C@@H](C)CO)C[C@H]1C
-39[16.7 µM],-9,COCCOC(=O)N1C(=O)[C@@]2(c3cc(C#CCC(C(=O)OC)C(=O)OC)ccc31)[C@H](c1ccccc1OCCO)N1[C@H](c3ccccc3)[C@H](c3ccccc3)OC(=O)[C@H]1[C@@H]2C(=O)N1CCN(c2ncccn2)CC1
-84[16.7 µM],13,C[C@H](CO)N1C[C@H](C)[C@H](CN(C)C(=O)C2CCCCC2)OCCCC[C@H](C)Oc2ccc(NC(=O)Cc3ccccc3)cc2C1=O
5[16.7 µM],-5,C[C@H](CO)N1C[C@H](C)[C@@H](CN(C)C(=O)Nc2ccccc2)Oc2ccc(NC(=O)Cc3cn(C)c4ccccc34)cc2CC1=O
-26[16.7 µM],24,Cc1ccc(-c2ccc3c(c2)O[C@@H](CN(C)C(=O)NC(C)C)[C@H](C)CN([C@@H](C)CO)S3(=O)=O)cc1
-5,-13,Cc1ccc(NC(=O)CN2C(=O)NC(Cc3ccccc3)C2=O)cc1Cl (stereo not given)
1[16.7 µM],-18,CNC(=O)C[C@@H]1CC[C@@H]2[C@H](COc3ccc(NC(=O)NC(C)C)cc3C(=O)N2C)O1
22[16.7 µM],-3,CNC[C@@H]1Oc2cc(C#CCC(C)C)ccc2S(=O)(=O)N([C@H](C)CO)C[C@H]1C
-7[16.7 µM],-7,CCCN(C)C[C@@H]1Oc2ncc(-c3ccc(OC)cc3)cc2C(=O)N([C@H](C)CO)C[C@@H]1C
5[16.7 µM],17,CCC(=O)N1C[C@@H](C)[C@@H](OC)CN(C)C(=O)c2cc(NC(=O)Nc3cccc(F)c3)ccc2OC[C@H]1C
-31[16.7 µM],24,C[C@@H]1CCCCO[C@@H](CN(C)Cc2ccc3c(c2)OCO3)[C@H](C)CN([C@H](C)CO)C(=O)c2cc(NC(=O)Cc3ccccc3)ccc2O1
12[16.7 µM],-7,CC(=O)Nc1ccc2c(c1)C(=O)N(C)[C@@H]1CC[C@@H](CC(=O)NC3CCCCC3)O[C@H]1CO2
-22[16.7 µM],2,C[C@@H]1CN([C@@H](C)CO)C(=O)c2cc(/C=C/c3ccccc3)cnc2O[C@@H]1CN(C)Cc1ccccc1F
20[16.7 µM],-9,C[C@@H]1CN([C@@H](C)CO)C(=O)c2cc(-c3cccnc3)cnc2O[C@H]1CN(C)C(=O)Nc1ccc2c(c1)OCO2
29[16.7 µM],-5,C[C@@H]1CN([C@H](C)CO)C(=O)c2cccc(NC(=O)Nc3ccccc3)c2O[C@H]1CN(C)CC1CCCCC1
2[16.7 µM],25,O=C(C[C@H]1CC[C@@H](NS(=O)(=O)c2cccc(F)c2)[C@H](CO)O1)NCc1ccc2c(c1)OCO2
17[16.7 µM],5,CCCC#Cc1cnc2c(c1)C(=O)N([C@H](C)CO)C[C@H](C)[C@@H](CN(C)S(C)(=O)=O)O2
0[16.7 µM],2,CN(C)CC(=O)N[C@H]1CC[C@H](CCNC(=O)C2CCC2)O[C@@H]1CO
29[16.7 µM],13,C[C@H]1CCCCO[C@H](CN(C)S(=O)(=O)c2cn(C)cn2)[C@@H](C)CN([C@@H](C)CO)C(=O)c2cc(NC(=O)Nc3ccc(F)cc3)ccc2O1

# Not all compounds are listed (hit frequency here may not be typical).
